LT uptake inh: anthrax lethal toxin internalization inhibition; Cells, anthrax lethal toxin internalization, FRET ratio (460/530); Potency, µM (top dose mostly 40 µM), inactives show top-dose activity change, negative = inhibition, hits mostly inhibitors; 0.67% of 70,000 active; active = well fitted falling ratio curve with the 530 nm signal flat; inconclusive = other ratio curves, or a change in one channel alone; inactive = flat curves in the ratio and both channels; the % refers to the ratio; note: % is set by controls: 0 for no effect and ±100 for the full control effect; nearly all actives have a fitted effect of over 50% in size; tested in ME-180 cells; beta-lactamase reporter
SmPrx2 inh: inhibitors of Schistosoma mansoni peroxiredoxin 2; 0.07% of 65,000 active; Potency, µM; S. mansoni Prx2 activity coupled to TGR/GSH (TGR is thioredoxin glutathione reductase), NADPH fluorescence loss, qHTS; some inactives read as strong as hits; active means full or partial inhibition curve with a strong effect at the top dose; inconclusive means weaker partial or single-point curve; inactive means no accepted curve; note: series up to 57 µM; many of its hits are not listed in these tables
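Coupled assay in which S. mansoni TGR passes NADPH reducing equivalents via glutathione to Prx2, which reduces H2O2. Compounds were preincubated 15 min at room temperature with 25 nM TGR/50 nM Prx2 mix. Kinetic NADPH fluorescence loss (ex 365/em 450 nm) was monitored.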
* hit, by the source's call; ? = inconclusive; / = no result given; [ ] = dose if it differs, or a comment. Potency is the fitted concentration of half-maximal effect.

Every second line gives: LT uptake inh	SmPrx2 inh
> Cn1c(CN2CCCCC2)nc2cc(NC(=O)c3cccs3)ccc21
 : -12%	>57
> CC(C)n1c(SCC(=O)NCc2ccco2)nc2c1c(=O)n(C)c(=O)n2C
 : -15%	>57
> Cc1nn(Cc2ccc(C(=O)Nc3nccs3)cc2)c(C)c1Cl
 : /	>57
> O=C(NCCCN1CCN(CCCNC(=O)c2ccc3c(c2)OCO3)CC1)c1ccc2c(c1)OCO2
 : -1%	>57
> CCOC(=O)c1cnn2c(C)cc(-c3ccc(F)cc3)nc12
 : -4%	/
> O=C(c1ccco1)N(Cc1nc2ccccc2c(=O)[nH]1)C1CCCC1
 : -16%	>57
> O=c1c2ccccc2nc2n1CCC2
 : ?	>57
> Cc1nc(-c2cccc(S(=O)(=O)N3CCOCC3)c2)cs1
 : ?	>57
> Cc1ccccc1CN(c1ccc(C(N)=O)cc1)S(C)(=O)=O
 : 2%	>57
> Cc1nc2c(C(=O)NCc3ccco3)cnn2c(C)c1Cc1ccc(F)cc1Cl
 : ?	>57
> COC(=O)NCC(c1cccnc1)N1CCN(c2ccccc2OC)CC1 (configuration not stated)
 : 13%	>57
> COc1ccc(Cl)cc1S(=O)(=O)n1nnc2ccccc21
 : 5%	>57
> COCCNC(=O)CCCn1c(=O)c2ccccc2n(CC(=O)NCCC2=CCCCC2)c1=O
 : 2%	>57
> Cc1nc(SCc2ccccc2C)n[nH]1
 : -21%	>57
> COc1ccccc1NC(=O)Cn1cnc2c1c(=O)n(C)c(=O)n2C
 : 9%	/
> O=C(Nc1nccs1)C12CC3CC(C1)CC(C(=O)Nc1nccs1)(C3)C2
 : ?	>57
> CCCCOC(=O)c1ccc(NC(=O)C(CCS(C)(=O)=O)NC(C)=O)cc1 (configuration not stated)
 : 5%	>57
> CCN(CC)S(=O)(=O)c1cccc(-c2nnc(C(=O)c3ccc(C(F)(F)F)cc3)o2)c1
 : -3%	>57
> O=c1[nH]c(-c2cccs2)nc2ccccc12
 : -4%	>57
> O=c1c(-c2cccs2)nc2cnc(N3CCOCC3)nc2n1Cc1cccs1
 : ?	>57
> COP(=S)(OC)Oc1ccc(SC)c(C)c1
 : ?	/
> C=CCn1c(SCC(=O)c2cc(C)n(CC3CCCO3)c2C)nnc1-c1ccccc1 (configuration not stated)
 : 2%	>57
> O=C1c2ccccc2C(Cc2ccncc2)(Cc2ccncc2)c2ccccc21
 : ?	>57
> CN(C)CCOC(c1ccccc1)c1ccccc1 (tested in a mixture with another compound)
 : -2%	>57
> COC(=O)CSc1nnc(CNC(=O)c2cccc(C)c2)n1-c1ccccc1OC
 : -2%	>57
> Cc1cccc(NC(=O)c2cc3c(n(-c4ccccc4)c2=O)CCCC3=O)n1
 : -6%	>57
> Cn1c(=O)c2c(nc(CN3CCN(c4ccccc4)CC3)n2CCN2CCOCC2)n(C)c1=O
 : ?	>57
> N#CCCn1c(=O)c(CCc2ccccc2)nc2cnc(N3CCOCC3)nc21
 : ?	>57
> O=C(Cl)c1c(Cl)cccc1Cl
 : ?	/
> c1ccc(N=P(N2CCOCC2)(N2CCOCC2)N2CCOCC2)cc1
 : 6%	>57

Rewritten with each value named: part of the list above.
O=C1c2ccccc2C(Cc2ccncc2)(Cc2ccncc2)c2ccccc21
  LT uptake inh = ? | SmPrx2 inh = >57
C=CCn1c(SCC(=O)c2cc(C)n(CC3CCCO3)c2C)nnc1-c1ccccc1 (configuration not stated)
  LT uptake inh = 2% | SmPrx2 inh = >57

Next results.
Every second line gives: LT uptake inh	SmPrx2 inh
> O=C(CN1C(=O)C2CCCCN2C(=O)c2ccccc21)N1CCCc2ccccc21 (configuration not stated)
 : 2%	>57
> Cc1csc(NC(=O)c2cccc(Cn3nc(C)c(Br)c3C)c2)n1
 : -9%	>57
> [N-]=[N+]=Nc1ccc(C(=O)CSC[C@@H](NC(=O)CC[C@@H](N)C(=O)O)C(=O)NCC(=O)O)cc1
 : -7%	>57
> COc1ccc(CCNc2oc(-c3ccc(OC)c(OC)c3)nc2C#N)cc1
 : /	>57
> CN(C)c1ccc(-c2cncnc2-n2ccnc2)cc1
 : 2%	>57
> COc1cccc(-c2ccc3ncnc(N4CCOCC4)c3c2)c1
 : -30%	>57
> CCOCCOC(=O)C1=C(C)N(C)C(=O)NC1c1cc(Cl)c(O)c(OCC)c1 (configuration not stated)
 : -3%	>57
> O=C(Nc1ccccc1)N1CCn2c(nc3ccccc32)C1
 : ?	>57
> Cn1nnnc1SCC(=O)Nc1ccc(Oc2ccccc2)cc1
 : 13%	>57
> Nc1nc(-c2ccc3c(c2)OCCO3)cs1
 : 7%	>57

Single records, as listed above:
Cn1nnnc1SCC(=O)Nc1ccc(Oc2ccccc2)cc1 is entered as LT uptake inh: 13%; SmPrx2 inh: >57
COc1cccc(-c2ccc3ncnc(N4CCOCC4)c3c2)c1 is entered as LT uptake inh: -30%; SmPrx2 inh: >57
CN(C)c1ccc(-c2cncnc2-n2ccnc2)cc1 is entered as LT uptake inh: 2%; SmPrx2 inh: >57

Next part:
Every second line gives: LT uptake inh	SmPrx2 inh
> C#CCn1cnc2c(cnn2-c2ccc(C)c(C)c2)c1=O
 : -7%	>57
> CCn1cc(C2N3CC4(C)CN2CC(C)(C3)C4=O)c2ccccc21 (configuration not stated)
 : 8%	>57
> CSCCC(NC(C)=O)C(=O)Oc1ccc2c3c(c(=O)oc2c1)CCCC3 (configuration not stated)
 : 8%	>57
> CSCSC1=C(C#N)C(c2ccccc2Cl)C(C(C)=O)=C(C)N1 (configuration not stated)
 : ?	?
> COc1ccc(NC(=O)CCNC(C)=O)cc1NS(=O)(=O)c1ccc(F)cc1
 : 4%	>57
> CC(=O)Nc1cccc(OCC(=O)Nc2ccc(F)cc2)c1
 : 9%	>57
> C=CC=O
 : 13%	/
> CCCn1cnc2cc(NCc3ccccn3)ccc21
 : 13%	>57
> Cc1nnc(NC(=O)C2CCCN(c3ncccn3)C2)s1 (configuration not stated)
 : -5%	>57
> O=C(COc1cccc2ccccc12)N1CCN(c2ccccc2)CC1
 : ?	/

(more compounds)
structure	LT uptake inh	SmPrx2 inh
CC(=O)c1ccc(NC(=O)CSc2nnc(Cn3c(=O)sc4ccccc43)n2C)cc1	0%	>57
O=C(O)C1C2CCC(O2)C1C(=O)NCc1ccncc1 (configuration not stated)	-8%	>57
CCC(C)NC(=O)C1CCC(=O)N(c2cc(OC)c(OC)c(OC)c2)C1c1ccc(OC)cc1 (configuration not stated)	-1%	>57
COc1ccc(NC(=O)CCN2CCCC(C)C2)cc1 (configuration not stated)	?	>57
C[C@@H](c1ccccc1)N1C(=O)[C@@H]2[C@H]3C(=CC[C@H]2C1=O)C(=O)[C@H]1O[C@H]1[C@H]3O	?	/
COc1ccc2[nH]cc(C(=O)CN3CCCC(C)C3)c2c1 (configuration not stated)	1%	>57
O=C(Cn1c(-c2cncs2)nc2ccccc21)NC1CCCC1	?	>57
Cc1cc(C)c(-c2cc(C(=O)Nc3c(C)n(C)n(-c4ccccc4)c3=O)[nH]n2)c(O)c1	0%	>57
CCOc1ccc2[nH]c(=O)c(CN(Cc3ccc(F)cc3)C(=O)N3CCCC3)cc2c1	0%	>57
CCS(=O)(=O)N1CCC(C(=O)N2CCc3ccccc3C2)CC1	12%	>57
Cn1c(=O)n(CCc2ccccc2)c(=O)c2c1nc1n2CCCN1Cc1ccccc1	-6%	>57
COCCNC(=O)CSc1nc2ccccc2c(=O)n1-c1cccc(OC)c1	24%	>57
CCCCCOC(=O)Cc1c(O)c2ccccc2n(C)c1=O	3%	>57
COc1ccc(Cl)cc1NC(=O)COc1cccc(-n2cnnn2)c1	?	>57
O=C(/C=C1\NC2(CCCC2)Cc2ccccc21)N1CCOCC1	10%	>57
COc1cc(Cl)c(C)cc1NC(=O)CSc1nnc(-c2ccco2)n1CC(C)C	?	>57
CCN(c1cccc(C)c1)S(=O)(=O)c1cccc2nsnc12	-8%	>57
CCCC1CCC(c2nc(-c3cccnc3)no2)CC1 (configuration not stated)	-8%	>57
O=C1CCC[C@@H](C2=CCCCC2=O)C1	3%[8 µM]	/
CCOc1cc(N2CCOCC2)c(OCC)cc1NC(=O)c1cc(-c2ccco2)nc2ccccc12	?	>57
COc1ccc(NC2=NCC(=O)N2c2ccccc2)c(OC)c1	-5%	>57
Cc1cc(NC(=O)c2cc(C3CC3)on2)no1	5%	>57
O=C(CCCc1nc2ccccc2s1)Nc1nccs1	-30%	>57
c1ccc2c(NC3CCCC3)nnc(NC3CCCC3)c2c1	-22%	>57
CC(=O)CSc1nc2ccc(Nc3nc(N4CCOCC4)nc(N4CCOCC4)n3)cc2s1	?	>57
COc1cc(CNc2ccc3c(c2)CCC3)cc(OC)c1O	23%	?
O=C(Cn1c(NCCO)nc2ccccc21)NCCc1ccccc1	11%	>57
CC(=O)Nc1ccc(S(=O)(=O)NCC2CCC(C(=O)NCCCN3CCCC3=O)CC2)cc1 (configuration not stated)	1%	>57
O=C(CN1C2CCC1CC(O)(c1cccnc1)C2)Nc1ccc2c(c1)OCO2 (configuration not stated)	7%	>57
O=C(NCCc1ccncc1)Nc1ccc(Cl)cc1	?	>57
CC(=O)Nc1ccc(NC(=O)C(C)Oc2ccccc2F)cc1 (configuration not stated)	-5%	>57
O=C(O)c1ccc2c(c1)NC(=O)C(N1CCCC1)S2 (configuration not stated)	2%	>57
CCn1c(SCC(=O)Nc2nccs2)nnc1-c1ccncc1	8%	>57
COCCOC(=O)C1=C(C)Nc2ncnn2C1c1ccccc1 (configuration not stated)	14%	>57
Cc1oc(-c2ccc(Cl)cc2)nc1CN1CCCC(C(=O)NCc2cccnc2)C1 (configuration not stated)	2%	>57
CS(=O)(=O)NCCSCc1ccco1	-11%	/
COc1ccc(N2CCN(CC(=O)Nc3nc4c(s3)CC(C)CC4)CC2)cc1 (configuration not stated)	8%	>57
Cc1nc2sc(C(c3cccs3)N3CCN(c4ccccc4)CC3)c(O)n2n1 (configuration not stated)	10%	>57
CCn1c(=O)c(C(=O)NCCN2CCCCC2)c(O)c2ccccc21	4%	>57
CC(C)(C)C(=O)CP(=O)(O)O	2%[8 µM]	>57
O=C(COc1ccccc1Cl)NCc1ccncc1	7%	/
Cn1cc(C2=C(c3cn(CCCSC(=N)N)c4ccccc34)C(=O)NC2=O)c2ccccc21	?	/
Cc1cc2c(cc1Cl)N(C(=O)Nc1ccnc3ccccc13)CC2	?	>57
CCOc1ccc2[nH]c(=O)c(CN(CCc3ccccc3)C(=O)c3cnccn3)cc2c1	11%	>57
Cc1ccc2nc3c(cc(C(N)=S)c(=N)n3CCCOC(C)C)c(=O)n2c1	?	>57
Cn1c(=O)c2c(ncn2CC(=O)NC(C)(C)C)n(C)c1=O	-4%	>57
CCCCOn1c(C)c(C(=O)OCC)c2c3nonc3ccc21	2%	>57
O=C1OC(Nc2nc3ccccc3s2)c2ccccc21 (configuration not stated)	-9%	>57
Cn1c(NC(=O)c2ccc(Br)o2)cc(=O)n(C)c1=O	-11%	>57
COc1nc(NCCc2ccc(OC)c(OC)c2)nc(NC(C)(C)CO)n1	0%	>57
O=c1cc(-c2ccccc2)c2c([nH]1)CCCC2	?	>57
COc1ccc(CCNC(=O)COc2nsnc2N2CCOCC2)cc1OC	-3%	>57
O=C1CSC(c2ccncc2)N1Cc1ccco1 (configuration not stated)	-4%	>57
COc1ccc(OC)c(N)c1	7%	>57
CN(C)C(=O)C12CCC(C)(c3nc4ccccc4nc31)C2(C)C (configuration not stated)	-14%	>57
O=C(O)c1ccccc1S(=O)(=O)Cc1ccccc1	-7%	>57
Cc1cccc(C)c1NC(=O)CSc1nnnn1C	4%	>57
Cc1cc(-c2cc(N)n(-c3ccccc3)n2)c(C)n1C1CCCC1	2%	>57
CCCn1nnnc1SCC(=O)c1ccc2c(c1)OCCO2	1%	>57
COc1ccc2c(c1)CCc1c(C(=O)Nc3ccc(OC)c(OC)c3)noc1-2	2%	>57

Filtered by structure, the compounds so far containing a COOH group (4)
structure	LT uptake inh	SmPrx2 inh
[N-]=[N+]=Nc1ccc(C(=O)CSC[C@@H](NC(=O)CC[C@@H](N)C(=O)O)C(=O)NCC(=O)O)cc1	-7%	>57
O=C(O)C1C2CCC(O2)C1C(=O)NCc1ccncc1 (configuration not stated)	-8%	>57
O=C(O)c1ccc2c(c1)NC(=O)C(N1CCCC1)S2 (configuration not stated)	2%	>57
O=C(O)c1ccccc1S(=O)(=O)Cc1ccccc1	-7%	>57

(list continues)
structure	LT uptake inh	SmPrx2 inh
CN(C)CCCN1C(=O)C(=O)/C(=C(/O)c2ccc3c(c2)OCCO3)C1c1ccccn1 (configuration not stated)	-19%	>57
CCCCC(CC)COC(=O)c1ccccc1C(=O)O (configuration not stated)	-12%	/
COc1cc(C(=O)OCC(=O)N2CCCC2)cc(OC)c1OC	8%	>57
CCOC(=O)C1CCCN(Cc2ccccc2F)C1 (configuration not stated)	-6%	>57
CCOc1ccc(Nc2cc(C)nc(N3CCOCC3)n2)cc1	-9%	>57
Cc1cc(C)c2c(c1)OC(O)(C(F)F)CC2=O (configuration not stated)	-9%	>57

Assay outcomes as filed in PubChem.

Some of the compounds tested; rates above refer to the full screens.
